V. cholerae QS: Vibrio cholerae quorum sensing activators, luminescence (AID 686977); V. cholerae quorum sensing reporter, luminescence, 6 h; higher luminescence means a stronger effect; most inactives read 0; luminescence at 50 µM unless noted; hits with a dose series show EC50 in µM; 9,400 tested, under 10 active;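 active = light above mean plus 3 SD and confirmed in a dose series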;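 note: raw light counts without normalisation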
* hit, by the source's call; [ ] = dose if it differs, or a comment.

> CCn1cc(C(=O)O)c(=O)c2cc(F)c(N3CCNCC3)nc21
  V. cholerae QS: 0[10 µg/mL]
> Nc1c2c(nc3ccccc13)CCCC2O (centres undefined)
  V. cholerae QS: 0[10 µg/mL]
> CCOC(=O)NNc1nncc2ccccc12
  V. cholerae QS: 0[10 µg/mL]
> CCCCOc1ccc(CC(=O)NO)cc1
  V. cholerae QS: 40[10 µg/mL]
> CCC(=O)O[C@]1(C(=O)SCF)[C@H](C)C[C@H]2[C@@H]3C[C@H](F)C4=CC(=O)C=C[C@]4(C)[C@@]3(F)[C@@H](O)C[C@@]21C
  V. cholerae QS: 0[10 µg/mL]
> NC(N)=NC(=O)Cc1c(Cl)cccc1Cl
  V. cholerae QS: 0[10 µg/mL]
> NC(=NCc1ccccc1)NC(=O)c1nc(Cl)c(N)nc1N
  V. cholerae QS: 40[10 µg/mL]
> C[C@H]1[C@H](C)CC[C@]2(C(=O)O[C@@H]3O[C@H](COC4O[C@H](CO)[C@@H](OC5O[C@@H](C)[C@H](O)[C@@H](O)[C@H]5O)[C@H](O)[C@H]4O)[C@@H](O)[C@H](O)[C@H]3O)CC[C@]3(C)C(=CC[C@@H]4[C@@]5(C)C[C@@H](O)[C@H](O)[C@@](C)(CO)C5CC[C@]43C)[C@H]12 (some centres undefined)
  V. cholerae QS: 0[10 µg/mL]
> CC(=O)Nc1ccc(O)cc1
  V. cholerae QS: 0[10 µg/mL]
> C=C1c2cccc(O)c2C(O)=C2C(=O)[C@]3(O)C(O)=C(C(N)=O)C(=O)[C@@H](N(C)C)[C@@H]3[C@@H](O)[C@H]12
  V. cholerae QS: 0[10 µg/mL]
> Cn1c(=O)c2c(ncn2CCO)n(C)c1=O
  V. cholerae QS: 0[10 µg/mL]

Three entries from above, ordered by count of non-hydrogen atoms, smallest number first:
> NC(N)=NC(=O)Cc1c(Cl)cccc1Cl
  V. cholerae QS: 0[10 µg/mL]
> Cn1c(=O)c2c(ncn2CCO)n(C)c1=O
  V. cholerae QS: 0[10 µg/mL]
> C[C@H]1[C@H](C)CC[C@]2(C(=O)O[C@@H]3O[C@H](COC4O[C@H](CO)[C@@H](OC5O[C@@H](C)[C@H](O)[C@@H](O)[C@H]5O)[C@H](O)[C@H]4O)[C@@H](O)[C@H](O)[C@H]3O)CC[C@]3(C)C(=CC[C@@H]4[C@@]5(C)C[C@@H](O)[C@H](O)[C@@](C)(CO)C5CC[C@]43C)[C@H]12 (some centres undefined)
  V. cholerae QS: 0[10 µg/mL]

Source: PubChem

Some of the compounds tested; rates above refer to the full screens.
